YjeE inh – YjeE (TsaE) inhibition, E. coli. purified YjeE, fluorescence polarisation of a bound ADP probe. Potency, µM. actives 0.05% (n = 71,000). P0AF67; active = well fitted falling curve; inconclusive = weaker or top-dose-only fall, or a rising curve; inactive = flat or poorly fitted curve;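 further: top concentration of the series not given in the record; excess ADP was the control for the full effect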
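Fluorescence polarization of a BODIPY Texas Red–ADP probe (2 uM) bound to purified YjeE (10 uM) was read after 15 min room-temperature incubation with compounds. Loss of polarization marks inhibitors; ADP serves as titrated control.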
Bst PK mod – pyruvate kinase (B. stearothermophilus) modulation. Potency, µM. partly purified Bacillus stearothermophilus pyruvate kinase, luminescence ATP production; ribose 5-phosphate activator present at AC10. actives 1.2% (n = 51,000); in the data active means potency below about 11 µM; inconclusive means mostly about 12 µM to 25 µM; inactive means weaker than that;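 the screen sought inhibitors and activators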;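 further: potency means the concentration at half of the fitted maximal effect; scaled between full activation by ribose 5 phosphate and full inhibition by luteolin; about four in five hits inhibit and the cells do not say which; series up to 57 µM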
Active calls of the source: *; i = inactive; ? = inconclusive; . = no result given. An excerpt; the hit share may differ from the screen's.

| Compound | Bst PK mod | YjeE inh |
| --- | --- | --- |
| Cc1nc2ccc(NC(=O)C3CCN(S(=O)(=O)c4cccs4)CC3)cc2s1 | >57 | i |
| CCn1c(COc2ccccc2C)nnc1SCC(=O)N1CCCCC1 | >57 | i |
| CCCCCC(=O)N1CCN(CCN=CC2=C(O)CC(c3ccc(OC)c(OC)c3)CC2=O)CC1 (centres undefined) | >57 | i |
| CC1=CC(C)(C)Nc2ccc(CSc3ccccc3)cc21 | . | i |
| CCN(CC)S(=O)(=O)c1ccc(Nc2cc(C)nc3ncnn23)cc1 | >57 | i |
| Cn1c(Cc2csc(N)n2)nnc1SC/C=C/c1ccccc1 | >57 | i |
| CN1CCN(C(=O)C2(NC(=O)Nc3cccc(F)c3)CCCCC2)CC1 | >57 | i |
| CCCCn1c(SCc2ccc(C(=O)OC)o2)nc2cc(S(N)(=O)=O)ccc21 | >57 | i |
| COc1ccc(CCN2CCC(Nc3nc4ccccc4n3Cc3ccc(F)cc3)CC2)cc1 | >25.6 | i |
| C=C(Br)CN1CCN(CC(=C)Br)CC1 | >25.6 | . |
| CCNc1nc(SC(C(C)=O)C(C)=O)nc(N(C)C)n1 | >57 | i |
| COCCCn1c(=O)c2ccccc2c2ccccc2c1=O | >57 | i |
| COCCNc1ncncc1-c1c(C)noc1C | . | i |
| CCOc1ccccc1NC(=O)COc1cccc(-n2cnnn2)c1 | >57 | i |
| FC(F)(F)c1ccccc1-c1nc(N2CCOCC2)c2ccccc2n1 | . | i |
| COc1ccc(C(=O)NCCn2cc(SCC(=O)NCc3ccco3)c3ccccc32)cc1 | . | i |
| Cc1cc(NS(=O)(=O)c2ccccc2)no1 | . | i |
| CC(C)n1nnnc1SCC(=O)NCc1ccco1 | >57 | i |
| N#CCCn1c(=O)cnc2cnc(Nc3ccccc3)nc21 | . | i |
| CCc1ccc2[nH]c(=O)c(CN(CCN(CC)CC)C(=O)Nc3ccccc3OC)cc2c1 | >57 | i |
| c1ccc(-c2noc(-c3ccco3)n2)nc1 | . | i |
| COc1ccccc1NC(=O)c1c(C)cc(=O)oc1C | >11.4 | . |
| COc1ccc(-n2c(Cc3cccn3C)nnc2SCC(=O)NCCc2ccccc2)cc1 | >57 | i |
| CCOC(=O)Cn1ncc2c(=O)oc3ccccc3c21 | >57 | i |
| COCCNC(=O)c1csc2c1CCCC2 | >57 | i |
| CCOC(=O)CNC(=O)CNC(=O)c1ccc(OC)cc1 | >25.6 | . |
| CCOC(=O)N1CCN(C(=O)c2ccc3nc4ccc(Cl)cc4c(=O)n3c2)CC1 | >57 | i |
| Cc1nc2nc(SCC(N)=O)[nH]c2cc1Br | . | i |
| OC(COc1ccc(OCc2ccccc2)cc1)CN1CCOCC1 (centres undefined) | >57 | i |
| COc1cccc(Cn2c(=O)c(CCc3ccccc3)nc3cnc(N4CCN(C)CC4)nc32)c1 | . | i |

Single records (already shown):
COCCNC(=O)c1csc2c1CCCC2 is listed with Bst PK mod = >57; YjeE inh = i
CCc1ccc2[nH]c(=O)c(CN(CCN(CC)CC)C(=O)Nc3ccccc3OC)cc2c1 is listed with Bst PK mod = >57; YjeE inh = i

Arranged by length of the SMILES (smallest number first): six of the compounds above.
| Compound | Bst PK mod | YjeE inh |
| --- | --- | --- |
| CC(C)n1nnnc1SCC(=O)NCc1ccco1 | >57 | i |
| CCOC(=O)Cn1ncc2c(=O)oc3ccccc3c21 | >57 | i |
| N#CCCn1c(=O)cnc2cnc(Nc3ccccc3)nc21 | . | i |
| COc1ccc(-n2c(Cc3cccn3C)nnc2SCC(=O)NCCc2ccccc2)cc1 | >57 | i |
| CCOC(=O)N1CCN(C(=O)c2ccc3nc4ccc(Cl)cc4c(=O)n3c2)CC1 | >57 | i |
| COc1cccc(Cn2c(=O)c(CCc3ccccc3)nc3cnc(N4CCN(C)CC4)nc32)c1 | . | i |

The main list resumes with the 4 entries that preceded the break.
| Compound | Bst PK mod | YjeE inh |
| --- | --- | --- |
| CCOC(=O)N1CCN(C(=O)c2ccc3nc4ccc(Cl)cc4c(=O)n3c2)CC1 | >57 | i |
| Cc1nc2nc(SCC(N)=O)[nH]c2cc1Br | . | i |
| OC(COc1ccc(OCc2ccccc2)cc1)CN1CCOCC1 (centres undefined) | >57 | i |
| COc1cccc(Cn2c(=O)c(CCc3ccccc3)nc3cnc(N4CCN(C)CC4)nc32)c1 | . | i |
| CSc1nc(C)c(C(=O)Nc2ccccc2)c(C)c1C#N | >57 | i |
| CCOc1nc2c(c(=O)n(C)c(=O)n2C)n1Cc1ccccc1Cl | >57 | i |
| COc1ccc(C2NCCC3(O)CCCCC23)c(OC)c1OC (centres undefined) | >57 | i |
| Cc1ccc(SCC(=O)NCCCN2CCOCC2)cc1 | >57 | i |
| O=S1(=O)C=C(SCCN2CCCCC2)c2ccccc21 | . | i |
| CC(C)Cn1cnc2c(Sc3c([N+](=O)[O-])ncn3C)nc(N)nc21 | . | i |
| Cc1cc(SCC#N)n2nc(C)c(-c3ccccc3)c2n1 | . | i |
| Cc1nn(C)c(C)c1S(=O)(=O)N1CCCC(C(=O)NC2CCCCC2)C1 (centres undefined) | >57 | i |
| COc1ccc(CC(=O)N2CCNC2=O)cc1 | >57 | i |
| CC[C@H]1OC(=O)[C@H](C)[C@@H](O[C@H]2C[C@@](C)(OC)[C@@H](O)[C@H](C)O2)[C@H](C)[C@@H](O[C@@H]2O[C@H](C)C[C@H](N(C)C)[C@H]2O)[C@](C)(O)C[C@@H](C)CN(C)[C@H](C)[C@@H](O)[C@]1(C)O | . | i |
| CCn1c(SCc2nc3ccccc3c(=O)[nH]2)nc2ccccc2c1=O | >57 | ? |
| O=C(c1ccc(F)cc1)N1CCCCC(Sc2nnc3ccccn23)C1=O (centres undefined) | >57 | i |
| CCN(CC)C(=O)CC(c1ccc(F)cc1)c1ccco1 (centres undefined) | >57 | i |
| COc1ccc(N2CCN(CCNC(=O)c3ccc(NC(=O)C4CCCO4)cc3)CC2)cc1 (centres undefined) | >57 | i |
| CCc1c(C(=O)NCc2ccc3c(c2)OCO3)[nH]c(C)c1C(C)=O | >57 | i |

Looked up above.
Bst PK mod result of `CCNc1nc(SC(C(C)=O)C(C)=O)nc(N(C)C)n1` is entered as >57
Bst PK mod result of `OC(COc1ccc(OCc2ccccc2)cc1)CN1CCOCC1` (centres undefined) is entered as >57
Bst PK mod result of `COc1ccc(CC(=O)N2CCNC2=O)cc1` is entered as >57

More compounds follow:
| Compound | Bst PK mod | YjeE inh |
| --- | --- | --- |
| COC(=O)c1ccc(C2C(C(C)=O)=C(O)C(=O)N2CCO)cc1 (centres undefined) | >57 | i |
| CCOC(=O)Cc1csc(NC(=O)CC)n1 | . | i |
| Cc1ccc(N2CCN(C(=O)c3ccccc3F)CC2)c(C)c1 | . | i |
| CCOC(=O)c1[nH]c(C)c(C(=O)Nc2ccccc2C)c1C | . | i |
| CN(C)CCCOC(=O)C1c2ccccc2Oc2ccccc21 | >25.6 | . |
| CCCC[C@@H]1C[C@H]1C(NC(=O)c1ccco1)c1ccc(Cl)cc1 (some centres undefined) | . | i |
| CCCc1nnc(NC(=O)CCC(=O)N2CCN(CCn3c(C)ccc3C)CC2)s1 | >57 | i |
| CN(Cc1ccccc1)C(=O)N[C@@H](Cc1ccccc1)C(=O)O | >57 | i |
